# Screening results: PubChem, National Center for Advancing Translational Sciences (NCATS)
# PMP22 txn: modulates PMP22 transcription in S16 Schwann cells | S16 Pmp22-F2sN Schwann cells (luciferase reporters placed in the Pmp22 gene), FLuc/NLuc coincidence luminescence, 24 h | Potency, µM (highest dose often 57.5 µM), for the others: at the top dose activity change, negative = inhibition, most hits filed as inhibitors | actives 2% (n = 43,000); active = clear falling dose curves in both reporters; inconclusive = both reporters move, but less clearly or upward; inactive = either reporter flat; the % is the NLuc reporter signal; note: % is set by controls: 0 for no effect and ±100 for the full control effect; some results filed as inactive show a strong effect at the top dose
#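 Reporter cells (S16 Pmp22-F2sN, 500–1,000 per well) exposed to compounds for 24 h, 37C, 5% CO2; lysis with FLuc read after 10 min, then Stop&Glo and NLuc read after 10 min.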
# HTT promoter inh: inhibitors of huntingtin promoter activity | HEK293 HTT promoter firefly luciferase reporter (activity 0% = vehicle and -100% = no light), 24 h | Potency, µM (top dose mostly 57.5 µM), inactives show top-dose activity change, negative = inhibition, most hits filed as inhibitors | actives 0.93% (n = 48,000); active = well fitted inhibition curve with a large enough effect; inconclusive = small, poorly fitted or top-dose-only effect; inactive = no such curve, though single readings can be large or run the other way; note: nearly all actives have a fitted effect of over 50% in size
#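 Luminescence was read after Dual-Glo reagent and a 10 min room-temperature incubation. Values were normalized to vehicle (0% activity) and zero RLU (-100% activity). Reporter HEK293 cells had been exposed to compounds (up to 57.5 uM final) for 24 h.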
# The depositor's hits bear a star; ? = inconclusive; · = not tested or not shown; [ ] = another dose, or the depositor's remark. Potency is the fitted concentration of half-maximal effect.
# Preview, four compounds:
SMILES,PMP22 txn,HTT promoter inh
COc1ccc(-c2cn3c(n2)sc2cc(C(=O)Nc4cc(Cl)ccc4C)ccc23)cc1,-60%,37%[activator]
CCOc1ccc(CN2C(=O)C(=O)c3cccc(C)c32)cc1OC,11µM*,-27%
CC(=O)N1CCOc2cc(S(=O)(=O)NCc3ccc(F)cc3)c(C)cc21,-3%,11%
COc1cccc(NC(=O)CSc2nc(=O)[nH]c3c2CCCC3)c1,-4%,-36%

# All compounds of this part, from the first entry:
SMILES,PMP22 txn,HTT promoter inh
COc1ccc(-c2cn3c(n2)sc2cc(C(=O)Nc4cc(Cl)ccc4C)ccc23)cc1,-60%,37%[activator]
CCOc1ccc(CN2C(=O)C(=O)c3cccc(C)c32)cc1OC,11µM*,-27%
CC(=O)N1CCOc2cc(S(=O)(=O)NCc3ccc(F)cc3)c(C)cc21,-3%,11%
COc1cccc(NC(=O)CSc2nc(=O)[nH]c3c2CCCC3)c1,-4%,-36%
OC[C@]1(O)OC[C@@H](O)[C@H](O)[C@@H]1O,·,0%
CC1CCN(S(=O)(=O)c2ccc3nc(Nc4ccc(C#N)cc4)ccc3c2)CC1,?,?
CCOc1ccc(C(=O)Nc2cc(-c3cn4cccnc4n3)ccc2C)cc1OCC,1%,-3%
COc1cccc(-c2nc3c(C#N)c[nH]n3c2NC2CCCCC2)c1OC,-4%,-21%
CCOC(=O)c1noc2ncnc(N3CCC(C)CC3)c12,17%,-22%
CCCC1=Nc2cc(C(=O)NC3CCCC3)ccc2Sc2ccc(C)cc21,3.7µM*,?
O=C(c1ccc([N+](=O)[O-])cc1)N1c2ncnn2C2(CCCCC2)[C@@H]2CCCC[C@@H]21,-18%,-8%
COc1cccc(CNC(=O)C2CCC(CNS(=O)(=O)c3ccc(Br)s3)CC2)c1 (centres undefined),?,-9%
CCCN(CCC)CCNC(=O)Cn1ncc2c([nH]c3ccc(C)cc32)c1=O,-14%,7%
O=C(NCc1ccccc1)c1ccc(CSc2nc3cccnc3n2Cc2cccc(F)c2)cc1,?,?
COc1cccc(-c2nc(SCC(=O)NC3CCCC3)c(-c3ccc(C)cc3)[nH]2)c1,-17%,?
O=C(Nc1ccccc1)c1cnc(N2CCCCC2)c2ccccc12,-32%,?
CCc1cccc(NC(=O)C(Cc2ccccc2)NS(=O)(=O)c2cccs2)c1 (centres undefined),-16%,-34%
Cc1cc(C)cc(N2C(=O)CS(=O)(=O)C23C(=O)N(Cc2ccc(F)cc2)c2ccc(C)cc23)c1 (centres undefined),-3%,-10%
CCn1c(=O)cc(SCC(=O)N2CCN(c3ccccc3F)CC2)c2ccccc21,-28%,-3%
CCCCCNC(=O)C1CCC(Cn2c(=O)c3sccc3n(CC)c2=O)CC1 (centres undefined),?,-22%
O=c1ccc2cc(S(=O)(=O)Nc3ccc(OC(F)(F)F)cc3)ccc2[nH]1,26%,-27%
Cc1ccccc1Nc1nnc(-c2ccc(C)c(S(=O)(=O)N3CCN(C)CC3)c2)c2ccccc12,?,?
COc1cccc(C2CC(=O)Nc3c2ccc(C)c3C)c1OC (centres undefined),?,?
CCCn1c2ccccc2c2cnn(CC(=O)N(CCCOC)Cc3ccco3)c(=O)c21,?,?
COc1ccc(NC(=O)CSc2ncc3c(n2)-c2cc(Cl)ccc2N(Cc2ccccc2F)S3(=O)=O)cc1,?,-9%
Cc1nn(-c2ccccc2)c(OC(=O)c2ccc(F)cc2)c1S(=O)(=O)c1ccccc1,14%,-1%
Cc1ccc(-n2nc3ccc(NC(=O)COc4ccccc4C)cc3n2)cc1,?,27%
Cc1nnc(N2CCC(C(=O)NC3CCCCC3)CC2)c2nn(-c3ccc(Cl)cc3)c(C)c12,-5%,0%
Cc1cc(Cl)ccc1NC(=O)CN1C(=O)CSc2ccc(S(=O)(=O)N(C)C)cc21,13%,-20%
Cc1cc(C)c(NC(=O)CSc2nc3ccccc3c3nc(-c4ccccc4)nn23)c(C)c1,7%,-12%
CCOc1cc2[nH]c(=O)n(CCCCC(=O)N3CCN(c4ccccc4)CC3)c(=O)c2cc1OCC,-17%,-15%
CCOc1cccc(CC(=O)N2CCc3c([nH]c4ccccc34)C2c2ccc(OC)cc2)c1OCC (centres undefined),-30%,-21%
CCCS(=O)(=O)NCCc1csc2nc(-c3ccc(OC)cc3)nn12,1%,-12%
CCOc1ccccc1CN1C(=O)c2ccccc2C1C(=O)NC1CCCCCC1 (centres undefined),?,-12%
CCCCCNC(=O)C1CCC(Cn2c(=O)c3sccc3n(CC(=O)NCc3cccc(OC)c3OC)c2=O)CC1 (centres undefined),1%,-16%
CCn1ccc2cc(S(=O)(=O)N3CCC(C(=O)NCC(C)c4ccccc4)CC3)ccc21 (centres undefined),-22%,-19%
CC(=O)N1CCc2cc(Br)cc(S(=O)(=O)CCC(=O)N3CCN(c4ccccc4)CC3)c21,-13%,-2%
COc1c(C)c2c(c(O)c1C/C=C(\C)CCC(=O)OCCN1CCOCC1)C(=O)OC2,·,-22%
CNC(=O)c1c[nH]c2ccc(S(=O)(=O)Nc3cccc(Cl)c3C)cc2c1=O,?,-21%
CCc1ccc(CNC(=O)c2ccc(NC(=O)N3CC(C)Sc4ccccc43)cc2)cc1 (centres undefined),?,?
CC(=O)c1ccc(S(=O)(=O)N2CCC(Oc3ccc(-n4cnnn4)cc3)CC2)cc1,4%,8%
CCOc1ccc(CNC(=O)CSc2c3c(nc4cc(Cl)ccc24)CCCC3)cc1,?,-20%
COc1ccc(N2CCN(C(=O)C(C)n3nc(C)c4sc5ccccc5c4c3=O)CC2)cc1 (centres undefined),?,0%
CCOc1ccc(CCNC(=O)CCSCc2cccc(Cl)c2)cc1OCC,?,-25%
COc1ccc(CNC(=O)Cn2nnc(-c3ccc(C(F)(F)F)cc3)n2)cc1,15%,18%
O=C(CN1C(=O)CCc2cc(S(=O)(=O)N3CCOCC3)ccc21)Nc1cccc(C(F)(F)F)c1,-23%,?
Cc1ccc(CNC(=O)c2ccc(CS(=O)Cc3cccc(Cl)c3)o2)cc1 (centres undefined),-24%,?
CCOC(=O)[C@@H](N)Cc1ccc(-c2cc(O[C@H](c3ccc(Cl)cc3-n3ccc(C)n3)C(F)(F)F)nc(N)n2)cc1,·,-7%
CN(C)CC[C@@H](c1ccc(Br)cc1)c1ccccn1,·,1%
COCCCNC(=O)CSc1nc2cc3c(cc2c(=O)n1CCCCCC(=O)NCc1ccc2c(c1)OCO2)OCO3,-4%,-8%
CCCCc1ccc(NC(=O)Cn2nnc3sc4c(c3c2=O)CCC(C)C4)cc1 (centres undefined),-8%,-9%
Cc1[nH]c2ccccc2c1C1(O)C(=O)Nc2ccc(Cl)cc21 (centres undefined),-18%,1%
Cc1c(CCNC(=O)Cc2ccccc2)sc2nc(-c3ccc(F)cc3)nn12,-14%,-15%
COc1cc(-c2nc(Cn3nnc(C(=O)Nc4ccc(C)cc4C)c3C)c(C)o2)cc(OC)c1OC,?,2%
CCC(=O)Nc1ccc(-c2nnc3c4ccccc4c(C)nn23)cc1,?,-1%
CCC1CCCCN1C(=O)CSc1nc(-c2ccc(OC)cc2)cc(C(F)(F)F)n1 (centres undefined),?,?
CCc1cnc2c(c1SCC(=O)NCc1ccc(F)cc1)c(=O)n(C)c(=O)n2C,-2%,-2%
CN1CCN(CCCN2c3ccccc3Sc3ccc(C(F)(F)F)cc32)CC1,·,?
Cc1ccc2nc(N(Cc3cccnc3)C(=O)C3CCCCC3)sc2c1,4%,-27%
Cc1ccc(Cl)cc1-n1ncc2c(Nc3cccc(C)c3C)ncnc21,?,?

# Quoted from the results shown for reference:
SMILES,PMP22 txn,HTT promoter inh
CC(=O)c1ccc(S(=O)(=O)N2CCC(Oc3ccc(-n4cnnn4)cc3)CC2)cc1,4%,8%
CCOc1ccc(CNC(=O)CSc2c3c(nc4cc(Cl)ccc24)CCCC3)cc1,?,-20%
COc1ccc(N2CCN(C(=O)C(C)n3nc(C)c4sc5ccccc5c4c3=O)CC2)cc1 (centres undefined),?,0%
CCOc1ccc(CCNC(=O)CCSCc2cccc(Cl)c2)cc1OCC,?,-25%
COc1ccc(CNC(=O)Cn2nnc(-c3ccc(C(F)(F)F)cc3)n2)cc1,15%,18%
O=C(CN1C(=O)CCc2cc(S(=O)(=O)N3CCOCC3)ccc21)Nc1cccc(C(F)(F)F)c1,-23%,?

# Other results
SMILES,PMP22 txn,HTT promoter inh
Cc1ccc2nc(CSc3nnc(NC(=O)c4ccc(C(C)(C)C)cc4)s3)cc(=O)n2c1,-4%,-1%
CC(C)Oc1ccc(CNC(=O)CCCN2C(=O)CCn3nc(-c4cccn4C)cc32)cc1,12%,-3%
CCOc1cc(C(=O)Nc2ccc(Cl)c(-c3nc4ccccc4[nH]3)c2)cc(OCC)c1OCC,·,?
CCCCNC(=O)CSc1nc2cc3c(cc2c(=O)n1CCCC(=O)NCc1ccc2c(c1)OCO2)OCO3,11%,-15%
O=C(CSc1nccn1C1CCCC1)Nc1ccc(C(F)(F)F)cc1,?,?
CC(NC(=O)c1ccc(NC(=O)c2nsc3ccccc23)cc1)c1ccccc1 (centres undefined),?,?
O=C(NCCC1=CCCCC1)C1CCN(C(=O)N2CCOc3ccccc32)CC1,-15%,-29%
COc1ccc(NC(=O)c2oc3ccc4c(c3c2C)C(=O)CC(C)(C)O4)cc1OC,?,39%[activator]
O=C(Nc1cc(-c2nc3ccccc3s2)ccc1Cl)c1cc2ccccc2o1,-5%,21%
CC(C)NCC(O)c1cc(O)cc(O)c1 (centres undefined),·,-6%
CC[C@H](CC[C@@H](C)[C@H]1CC[C@H]2[C@@H]3CC=C4C[C@@H](O)CC[C@]4(C)[C@@H]3CC[C@]12C)C(C)C,·,-22%
CCOc1ccc(NC(=O)c2nc(S(=O)(=O)Cc3ccccc3F)ncc2Cl)cc1,1.3µM*,?
Cc1ccc2onc(CC(=O)N3CCN(c4ccc(F)cc4)CC3)c2c1,8%,-14%
CCc1nnc2c(Nc3cccc(C(C)=O)c3)nc3ccccc3n12,?,2%
COC(=O)Cn1c(=O)c2c(nc3n2CCN3c2ccc(F)cc2)n(C)c1=O,4%,-11%
O=C(Nc1cccc(C(=O)N2CCCCC2)c1)c1nsc2ccccc12,-28%,5%
COc1ccc(Cl)cc1NC(=O)Cn1cc(S(=O)(=O)Cc2cccc(Cl)c2)c2ccccc21,?,-29%
COC(=O)c1ccc(NC(=O)c2nn(C)c3c2CS(=O)(=O)c2ccccc2-3)cc1,6%,1%
Cc1ccc(C(=O)N2CCc3cc(CNC(=O)c4ccc(Br)cc4)ccc32)cc1,-55%,?
CCOCCCNC(=O)CN1C(=O)CCn2nc(-c3cccn3C)cc21,1%,-20%
CCCn1c2ccccc2c2nnc(SCC(=O)Nc3cccc(C(C)=O)c3)nc21,?,?
O=C(NCc1ccco1)c1ccc2c(c1)N(Cc1ccccc1F)C(=O)c1ccccc1S2=O (centres undefined),?,-24%
Cc1cccc(CNC(=O)CCCN2C(=O)COc3ccc(C)cc32)c1,-22%,-12%
Cc1ccn2c(Nc3ccc4c(c3)OCCO4)c(-c3ccccc3O)nc2c1,?,-8%
CCC(C)NC(=O)CSc1c2c(nc3cc(Cl)ccc13)CCCC2 (centres undefined),12µM*,0%
CCOc1ccc(N2CC(C(=O)NCc3nnnn3-c3ccc(C)c(C)c3)CC2=O)cc1 (centres undefined),-1%,0%
CCOC(=O)c1ccc(NC(=O)CC2C(=O)N(c3ccc(F)cc3)C(=O)N2Cc2ccc3c(c2)OCO3)cc1 (centres undefined),-24%,?
COc1ccc(C)c2sc(N(Cc3cccnc3)C(=O)CCc3ccccc3)nc12,-40%,-24%
CCOC(=O)c1ccc(NC(=O)COc2cccc3c(=O)n(C)ccc23)cc1,?,?
COc1ccc(C(=O)NCc2ccc3c(c2)CCN3C(=O)c2ccccc2)cc1,?,-2%
CCOc1ccccc1CNC(=O)C1CCN(c2nnc(-n3c(C)ccc3C)s2)CC1,?,-15%
Cc1ccc(CNC(=O)CSc2ncc(S(=O)(=O)c3ccc(Br)cc3)c(=O)[nH]2)cc1,-9%,5%
O=C(Cn1c(=O)c2cccn2c2ccc(F)cc21)Nc1cccc(F)c1,-15%,-20%
COc1ccc(Cl)cc1NS(=O)(=O)c1c(C)nc2scc(C)n2c1=O,-5%,-5%
CCOC(=O)c1ccc(NC(=O)Cn2c(=O)cc(C)c3c(C)nn(-c4ccc(CC)cc4)c32)cc1,16%,-29%
CCc1ccc(NS(=O)(=O)c2c(-c3ccccc3)csc2C(=O)OC)cc1,?,-28%
CC(C)NC(=O)C1CCC(Cn2c(=O)c3sccc3n(CC(=O)NCc3ccccc3)c2=O)CC1 (centres undefined),1%,-2%
CCn1c(=O)c2cc(C(=O)Nc3cc(OC)c(OC)c(OC)c3)sc2c2ccccc21,?,-7%
Cc1ccn2c(Nc3ccc4c(c3)OCO4)c(-c3ccc(C)o3)nc2c1,-12%,17%
CCOCCCn1c(SCC(=O)OCC)nc2c(sc3ccccc32)c1=O,?,-6%
Cc1ccc2nc(Cl)c3cc(C(=O)N4CCCCC4)sc3c2c1,-23%,5%
